# Source: PubChem
# ugtP null kill: compounds lethal to S. aureus RN4220 ugtP deletion mutant. OD600 growth, 16 h; some inactives read as strong as hits. growth inhibition, % (no concentration beside the values). hit rate 0.54% among 330,000;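 active = z-score under -3 and OD600 up to 0.15 on both plates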;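 note: plate controls were untreated wells for no effect and antibiotic for full effect; wells of about 80 µL received 100 nL stock; the first replicate is given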
# PrP 5UTR inh: inhibition of PrP 5' UTR reporter expression. cell-based PrP 5' UTR mRNA reporter, plate reader. inhibition, % (no concentration beside the values). hit rate 0.35% among 340,000. AID 488862;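 active = every replicate at 50% or more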;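 note: 0 = median of the neutral control wells; tested in H4 reporter cells; numbers are from one replicate; inactives centre near -14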
# BJeLR viability: kills HRASV12-expressing BJeLR cells | BJeLR (HRASV12) viability, CellTiter-Glo ATP luminescence, 48 h; reference of the scale not given here | inhibition, % (concentration not given with the values) | hit rate 0.17% among 300,000;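 active = replicate mean above 50%; inconclusive = above 50% but judged a plate artefact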;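 note: 50 nL library stock added to about 25 µL; numbers are from one replicate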
# Mtb hypoxia rep: inhibitors of hypoxia-regulated fluorescent reporter in Mycobacterium tuberculosis; AID 1159583; fluorescence inhibition, % (no concentration beside the values); hit rate 0.1% among 300,000; M. tuberculosis hypoxia-regulated fluorescent reporter, fluorescence;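 active = 35 to 45% if threefold the growth effect, above 45% if 1.5-fold the growth effect; inactive = the rest, general growth blockers included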;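 note: wells of about 50 µL received 100 nL stock; 0% = vehicle wells and 100% = reference inhibitor wells; whole bacteria with a GFP reporter of the hypoxia response; strong numbers were not always called active; many hits fall short of the cut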
# Bead autofluor: compound fluorescence in toxin protease inhibitor counterscreen; compound autofluorescence counterscreen, microsphere flow cytometry; active compounds read high; fluorescence intensity (no concentration beside the values); hit rate 3.1% among 360,000; AID 624483;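 active = at least 3 SD above the mean of all compounds, about 16000 in these data; inconclusive = too few beads counted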;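 note: 100 nL of 1 mM stock went into each well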
# RN4220 kill: kills Staphylococcus aureus RN4220 | S. aureus RN4220 growth, OD600, 16 h | inhibition, % (test concentration not listed) | hit rate 0.33% among 330,000 | AID 1259311;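 active = z-score of -3 or lower and OD600 up to 0.18 on both plates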;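 note: plate controls were untreated cells for no effect and reference antibiotic for full effect; stock transfer was 100 nL into about 80 µL; one replicate is shown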
# Mtb hypoxia rep growth: recorded beside Mtb hypoxia rep, whose call it bears; growth inhibition, %; measured here: M. tuberculosis growth (absorbance);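 0% = vehicle and 100% = reference antibiotic; read after six days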
# Numbers without * were called inactive; ? = inconclusive; nt = not tested or not shown.
mol,ugtP null kill,PrP 5UTR inh,BJeLR viability,Mtb hypoxia rep,Mtb hypoxia rep growth,Bead autofluor,RN4220 kill
CC(C)C(=O)Nc1cccc(-c2nc3ncccc3o2)c1,1.0,-11.5,0.6,4.4,2.5,4203,-0.3
CC1=Nc2cccc3cccc(c23)N1,-21.4,-65.0,-9.4,7.1,9.4,8626,-1.4
COC(=O)c1ccc(=O)n(Cc2ccco2)c1,-4.6,-9.7,2.2,2.8,3.3,2847,-15.0
CC(/C=C/c1ccccc1F)=NNC(=O)C(C)C,5.8,nt,nt,-5.0,-5.5,nt,3.4
Cc1ccn2c(C(=O)c3ccc(Cl)cc3)cnc2c1,-2.0,-73.0,-15.0,17.3,24.5,4193,8.3
Cc1cc(NC(=O)c2cc(-c3ccco3)on2)no1,11.2,-25.3,11.6,7.1,2.8,11672,6.9
N#Cc1c(-c2ccccc2)ccn(Cc2ccccc2Cl)c1=O,nt,-20.9,4.8,nt,nt,2641,nt
Cc1ccc(-c2cc(C(=O)Nc3ccc(S(=O)(=O)Nc4nccs4)cc3)c3ccccc3n2)c(C)c1,-11.9,-17.1,5.8,14.3,11.5,9322,-14.1
CCOc1ccc(C2CC(c3cccc(C)c3)n3ncnc3N2)cc1 (centres undefined),2.6,-5.4,-8.3,nt,nt,4632,2.7
O=C(Nc1ccc(N2CCCCC2)cc1)c1cc(S(=O)(=O)N2CCOCC2)ccc1F,6.4,-14.3,3.5,1.4,3.9,4791,2.1
C=CCOc1ccc(CN(C)CC(=O)Nc2ccc3c(c2)CCC3)cc1,9.4,-22.3,-5.8,6.1,9.0,4352,10.7
CCN(C(=O)COC(=O)c1nc(Cl)ccc1Cl)C1CCS(=O)(=O)C1 (centres undefined),7.2,0.4,-4.3,2.4,-5.4,6343,3.5
COc1cccc(-n2nnc3c(=O)n(CC(=O)OCc4ccccc4)cnc32)c1,16.7,-6.8,-4.4,5.0,-2.5,7904,0.8
O=C(CN1C(=O)C(=O)c2ccccc21)c1ccccc1,7.5,-11.2,-11.9,15.7,1.6,2901,5.1
CN(C)C(CNC(=O)Cc1cccc(C(F)(F)F)c1)c1ccco1 (centres undefined),-0.6,-7.0,5.3,0.7,12.9,4478,3.5
CCCCCC(=O)N1CC2(CC(c3cccc(NC(=O)COc4ccc(Cl)cc4)c3)=NO2)CC1C(N)=O (centres undefined),-12.0,nt,nt,11.0,9.0,nt,1.8
Cc1ccc(OCCn2c(Br)nc3c2c(=O)n(C)c(=O)n3C)cc1,1.8,-12.2,5.2,-4.8,6.7,10360,3.7
CCOc1ccc(C=NNc2ccc(C(F)(F)F)cc2[N+](=O)[O-])cc1O,5.0,nt,nt,9.1,4.5,nt,4.1
CN(Cc1c(F)cccc1Cl)C(=O)CNC(=O)c1sc2ccccc2c1Cl,9.0,-24.2,9.2,6.1,-6.4,?,12.9
Cc1c(Cc2ccccc2)c(=O)oc2cc(OCC(N)=O)ccc12,-2.9,-29.1,6.3,8.8,-2.0,4738,1.2
NS(=O)(=O)c1ccc(CCNC(=O)CSc2nc3ccccc3c(=O)n2CC2CCCO2)cc1 (centres undefined),4.2,-14.7,4.5,11.8,-5.1,4885,-0.9
CCCCn1c(N)c(C(=O)OCCOC)c2nc3ccccc3nc21,12.2,nt,-3.3,3.4,-3.5,6207,2.6
CCN(CC)c1ccc(C=C2C(=O)N(C)C(=S)N(C)C2=O)o1,3.3,-7.5,4.1,45.8*,7.9*,10787,4.7
COc1ccccc1C(=O)NCCC(=O)NC1CCCC(C)C1C (centres undefined),5.2,-25.6,8.2,0.0,-3.0,5176,2.3
CCN1CCN(c2ccc(S(=O)(=O)N3CCOCC3)cc2NC(=O)/C=C/c2ccc(C)cc2)CC1,11.1,-44.6,14.5,7.8,10.8,5379,3.6
COc1ccc(-n2nc3c(N4CCC(C(=O)N5CCC(C)CC5)CC4)nnc(C)c3c2C)cc1,-5.9,-21.3,-12.4,-11.3,14.1,nt,6.8
Cc1nc(SCc2ccc(C(=O)O)cc2)nc2c1CCCC2,-1.6,-2.4,2.1,3.9,7.4,3544,4.8
Cc1sc(NC(=O)/C=C/c2ccco2)c(C(=O)O)c1C,-0.8,-48.1,16.4,2.8,8.0,4607,10.1
O=C(NC1CCN(Cc2ccc(F)cc2)CC1)c1ccccc1,17.6,-18.0,1.9,12.8,5.1,3938,1.0
CCn1nc(C)c(CN2CCCC(CO)(Cc3ccccc3)C2)c1C (centres undefined),-63.6,-7.2,-4.9,11.4,3.9,3251,9.3
CCCN(C(=O)C1CCCN(c2ncnc3c2nc2n3CCCCC2)C1)c1ccc(F)cc1 (centres undefined),-12.7,-5.5,-0.5,8.7,7.1,6205,-5.0
Cc1ccccc1C(=O)NNC(=O)CSc1nnc(-c2ccncc2)n1-c1ccccc1,2.1,-15.3,0.5,1.5,-4.4,2804,4.4
CCOC(=O)N1CCN(C(=O)CS(=O)(=O)Cc2nc(-c3ccccc3F)oc2C)CC1,-2.8,-11.1,1.9,-2.2,7.6,5605,1.9
COc1ccc(S(=O)(=O)NCc2ccccn2)cc1NC(=O)c1ccccc1C,-0.8,-1.1,23.3,-4.6,-7.4,?,-1.6
COc1cc(/C=C/C(=O)Nc2ccc3[nH]c(=O)[nH]c3c2)cc(OC)c1OC,19.2,-15.1,0.3,-7.3,8.9,4416,-7.3
CCCCc1nnc(NC(=O)C2CC(=O)N(c3ccc(C)cc3)C2)s1 (centres undefined),-1.3,-11.1,0.4,-1.6,12.6,3872,3.9
Cc1ccc(NC(=O)NNC(=O)C2CC(c3cccs3)=NO2)cc1 (centres undefined),1.0,-21.2,-3.7,-0.6,2.4,6134,0.8
O=C(CCc1ccccc1)NCCC1=CCCCC1,3.1,-16.8,-12.4,nt,nt,3108,0.3
CCOc1ccc(NCc2cc3c(C(C)(C)C)nn(-c4ccccc4)c3[nH]c2=O)cc1,23.0,0.3,-2.8,7.4,1.5,8094,-6.4
CCOC(=O)Nc1cccc(OCC(=O)Nc2ccccc2OC)c1,5.8,0.0,3.5,7.3,7.3,3256,5.6
O=C(NC(=S)N1CCN(Cc2ccccc2)CC1)c1ccco1,3.3,19.4,-0.8,11.8,9.8,4293,1.0
O=C(CN1CCN(Cc2ccccc2)CC1)NN=Cc1cccnc1,2.3,nt,nt,2.8,6.4,nt,1.5
COc1ccc(/C=C2/SC(=O)N(CCC(=O)Nc3ccc(S(=O)(=O)Nc4nccs4)cc3)C2=O)cc1,nt,-29.9,0.4,nt,nt,2414,nt
CN(C)S(=O)(=O)c1ccc(Oc2ccc(S(=O)(=O)N(C)C)cc2)cc1,10.7,6.3,16.0,14.2,8.0,?,5.4
N=c1oc2ccccc2cc1C(=O)N/N=C/c1ccccc1,nt,-21.7,2.2,nt,nt,2012,nt
CCC(C)SCc1nc2ccccc2[nH]1 (centres undefined),1.0,-30.1,14.1,5.5,6.2,2593,3.7
COc1ccccc1CNC(=O)COC(=O)c1cc(=O)[nH]c2ccccc12,8.2,nt,nt,6.9,5.8,nt,7.9
O=C1C(Cl)=C(NCc2cccnc2)C(=O)c2ccccc21,81.6,-49.5,16.7,0.1,0.8,3874,72.3
Cc1ccc(S(=O)(=O)N(c2ccccc2)C2CCS(=O)(=O)C2)cc1 (centres undefined),6.4,-8.2,-0.2,nt,nt,2194,-0.2
Cc1ccc(S(=O)(=O)NP(=O)(Oc2ccccc2)Oc2ccccc2)cc1,16.1,-12.2,5.4,8.0,2.7,8697,4.8

# In the list so far, two contain a COOH group:
mol,ugtP null kill,PrP 5UTR inh,BJeLR viability,Mtb hypoxia rep,Mtb hypoxia rep growth,Bead autofluor,RN4220 kill
Cc1nc(SCc2ccc(C(=O)O)cc2)nc2c1CCCC2,-1.6,-2.4,2.1,3.9,7.4,3544,4.8
Cc1sc(NC(=O)/C=C/c2ccco2)c(C(=O)O)c1C,-0.8,-48.1,16.4,2.8,8.0,4607,10.1

# Full records from above. Order of screens: ugtP null kill	PrP 5UTR inh	BJeLR viability	Mtb hypoxia rep	Mtb hypoxia rep growth	Bead autofluor	RN4220 kill
# CCCN(C(=O)C1CCCN(c2ncnc3c2nc2n3CCCCC2)C1)c1ccc(F)cc1 (centres undefined) across the screens: -12.7	-5.5	-0.5	8.7	7.1	6205	-5.0
# O=C(NC(=S)N1CCN(Cc2ccccc2)CC1)c1ccco1 across the screens: 3.3	19.4	-0.8	11.8	9.8	4293	1.0

# (list continues)
mol,ugtP null kill,PrP 5UTR inh,BJeLR viability,Mtb hypoxia rep,Mtb hypoxia rep growth,Bead autofluor,RN4220 kill
CCCCNC(=S)NNC(=O)c1cccnc1,5.2,-14.9,-10.1,15.3,10.3,7903,3.0
Cn1cnc([N+](=O)[O-])c1Oc1ccccc1,2.2,-5.7,-5.9,-1.0,3.0,2340,6.3
COc1ccccc1C(=O)N/N=C/c1c[nH]c2ccccc12,nt,-22.0,2.7,nt,nt,4947,nt
CCOc1cc(/C=N/O)ccc1OCc1ccc(C)cc1,nt,-48.9,-3.1,nt,nt,2387,nt
COCCNC(=O)c1cnn2c(C(F)(F)F)cc(-c3ccc(C)cc3)nc12,-0.7,-12.0,-9.1,3.5,-3.7,2447,2.8
O=C(O)C1C2CCC(O2)C1C(=O)Nc1ccc(Cl)cc1 (centres undefined),0.2,-19.4,7.9,-5.0,-4.8,4140,3.0
CC(C)C(=O)Nc1ccc(C(=O)NN2C(=O)c3ccccc3C2=O)cc1,4.5,-1.0,-5.2,6.9,5.2,7521,1.2
CCCCc1nc2sc3c(=O)[nH]c(=S)[nH]c3c2c2c1CCC2,8.6,-23.6,nt,0.0,7.6,4557,8.8
CCOC(=O)CCCNS(=O)(=O)c1c(C)ccc2nsnc12,4.5,-24.3,-11.1,0.6,5.0,3725,5.7
O=C1CC(C(=O)Nc2ccc(Cl)cc2)S/C(=N\N=C\c2ccco2)N1 (centres undefined),nt,-6.4,12.1,nt,nt,5354,nt
CC(C)CN(CC(C)C)C(=O)c1cccc(S(=O)(=O)N2CCc3ccccc32)c1,8.0,-23.7,2.2,8.7,17.7,4398,3.1
COc1ccc(CC2(CO)CCN(S(=O)(=O)c3c(C)nn(C)c3C)CC2)cc1,15.3,-18.8,-3.4,-4.2,-10.3,3247,2.1
CC(=O)Nc1ccccc1OCC(=O)NCC(F)(F)F,3.1,-16.0,6.3,5.5,4.6,4568,2.2
Cc1ccc(NC(=O)Cc2ccc(Cl)cc2)cc1S(=O)(=O)N1CCCCCC1,-21.8,-2.1,nt,8.4,7.2,4416,-11.0
Cc1cccc(OCC(=O)N2CCN(C(=O)c3cccs3)CC2)c1,6.6,-9.0,3.5,2.4,5.0,3271,4.8
C[C@@H](N)C(=O)N[C@H]1CCC2C3CC=C4C[C@@H](O)CC[C@]4(C)C3CC[C@@]21C (some centres undefined),2.8,-12.5,nt,7.0,6.6,3625,5.1
CCN1C(=O)[C@@H]2C(C(=O)c3cnccn3)=NN[C@@H]2C1=O,4.8,-20.2,-8.9,8.9,1.2,3707,3.1
C(#Cc1ccc(C#CCN2CCOCC2)cc1)CN1CCOCC1,10.6,-11.7,-5.1,-7.1,-5.5,17459*,6.1
Cc1nnsc1C(=O)NC1CCCc2c1cnn2-c1ccccc1F (centres undefined),8.4,0.7,0.9,13.4,3.9,4466,7.0
CC(C)(C)NC(=O)NC(=O)COC(=O)c1ccco1,-1.8,-10.3,5.5,15.4,7.5,2371,-5.9
O=C(CCc1nnc2n(Cc3ccc(F)cc3)c(=O)c3ccccc3n12)N1CCN(c2ccccn2)CC1,-1.9,-17.3,-9.3,0.2,20.6,5161,0.3
Nc1ccc(C(=O)OCc2ccncc2)cc1[N+](=O)[O-],7.5,-26.9,3.4,13.5,8.1,4310,6.7
O=C(Cn1cc([N+](=O)[O-])cn1)NCCc1c[nH]c2ccccc12,-1.1,-13.9,nt,12.8,3.4,3181,-0.7
Cc1cccc(CN2C(=O)N/C(=C/c3cc(C)n(-c4ccccn4)c3C)C2=O)c1,nt,-20.7,3.8,nt,nt,2591,nt
COC(=O)N/N=C/c1cc(C)n(-c2ccc(Br)cc2)c1C,nt,-29.4,-5.4,nt,nt,4534,nt
Cc1ccc(NC(=S)N2CCC(c3nc4ccccc4s3)CC2)cc1C,6.9,8.2,6.0,18.4,-0.3,7504,-1.9
N#Cc1ccc2ccn(CC(=O)NC3CCCCCC3)c2c1,-3.6,-30.1,-0.6,1.4,6.7,21036*,3.4
